Assay outcomes from PubChem.
FGF22 binding = shifts melting point of recombinant human FGF22 | Q9HCT0 | recombinant FGF22 thermal shift, SYPRO orange fluorescence; percent of sucrose octasulfate shift, DMSO zero | calls only at 9.99 µM | 340,000 tested, 1.5% active | AID 651658;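 active = melting point raised past a set limit in the mean and every replicate; inconclusive = no clear call; three in four hits are not shown here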
E coli growth = E. coli growth inhibition; 330,000 tested, 0.21% active; AID 1053175; OD600 absorbance (no concentration beside the values); Escherichia coli growth, OD600, 23 h; stronger effect = lower value;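 active = OD600 absorbance below the run mean of sample wells minus 3.6 SD, in any replicate, cut at about 0.56 in these data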;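 also: stock transfer was 300 nL into about 60 µL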
rRNA inh HTS = inhibits bacterial ribosomal RNA function over humanized ribosomes; 350,000 tested, 1.6% active; AID 720706; GFP signal change (wild-type ribosome), % (no concentration beside the values); E. coli WT GFP vs humanized-ribosome RFP mutants, fluorescence, 24 h; stronger effect = lower value; DMSO median 0, no signal -100;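 active = significant combined selectivity score with lowered wild-type GFP, culture density cut under 30%, mutant RFP and density less affected; inactive = any of these conditions unmet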; also: one replicate is shown; some compounds called inactive have numbers as strong as hits
ALR H2O2 inh = blocks human ALR sulfhydryl oxidase activity | 290,000 tested, 3.8% active | P55789 | inhibition, % (concentration not given with the values) | purified ALR, DTT oxidation, H2O2 HRP-luminol luminescence;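 active = mean and each replicate at 75% or more; inconclusive = only one of the two met; inactive = neither met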;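 also: stock transfer was 7.5 nL into about 7.5 µL; 0% = neutral wells and 100% = wells with inactivated enzyme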
HNF4A DNA FP = change in binding of human HNF4 alpha to DNA; P41235; HNF4a-FITC DNA binding, fluorescence polarization, 1 h; activity change, % at 10 µM; 360,000 tested, 0.3% active; AID 1224865; in the data active = activity change above about 30%, passing the limit was not always enough;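 also: controls were the assay level and a saturating level of protein; the project sought stronger binding though the title names inhibitors; some compounds called inactive have numbers as strong as hits; positive values seem to mean higher polarization but the record does not say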
Target sequence (P41235 whole entry, looked up): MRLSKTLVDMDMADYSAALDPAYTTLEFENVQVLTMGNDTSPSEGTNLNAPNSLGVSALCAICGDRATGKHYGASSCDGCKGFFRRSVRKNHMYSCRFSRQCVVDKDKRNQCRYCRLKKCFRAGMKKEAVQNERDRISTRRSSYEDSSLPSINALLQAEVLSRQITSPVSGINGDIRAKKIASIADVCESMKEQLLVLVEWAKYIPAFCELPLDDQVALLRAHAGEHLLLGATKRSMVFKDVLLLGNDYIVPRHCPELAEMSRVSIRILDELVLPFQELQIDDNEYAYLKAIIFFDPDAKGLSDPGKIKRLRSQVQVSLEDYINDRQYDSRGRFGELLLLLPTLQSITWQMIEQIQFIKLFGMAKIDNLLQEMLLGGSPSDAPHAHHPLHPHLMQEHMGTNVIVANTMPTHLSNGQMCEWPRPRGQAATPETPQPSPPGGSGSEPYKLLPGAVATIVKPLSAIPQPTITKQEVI
Vif TR-FRET = HIV-1 Vif–A3G interaction blockers – biochemical, TR-FRET, GST-Vif 1-94, biotin-A3G peptide, dose response retest, primary screen (AID 1117319); TR-FRET GST-Vif / biotin-A3G peptide binding; higher % means a stronger effect; test concentration not given here; strong numbers were not always called active; inhibition, %; hits with a dose series show IC50 in µM; 260,000 tested, 0.57% active;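 active = above the screen mean plus three standard deviations and confirmed in dose response; inconclusive = results disagree or hit not tested in dose response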;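 also: Vif residues 1-94 fused to GST binding biotinylated APOBEC3G peptide 110-148; 0% = full assay without inhibitor and 100% = GST in place of GST-Vif; retest series ran down from 100 µM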
MLL AF4-AF9 inh = inhibitors of human MLL-AF4/AF9 interaction. P42568. AlphaScreen, biotin-AF4 peptide binding to FLAG-AF9. inhibition, % at 10 µM. 350,000 tested, 0.47% active. AID 651704;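 active = every replicate reaching a set inhibition limit, whatever the replicate mean, cut at about 25% in these data; inconclusive = mean inhibition reaches that limit but some replicates miss it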;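 also: 0% = plate neutral control median and 100% = total signal loss; the record names both 10 and 1 µM as test concentration; the first replicate is given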
Target sequence (P42568 whole entry, looked up): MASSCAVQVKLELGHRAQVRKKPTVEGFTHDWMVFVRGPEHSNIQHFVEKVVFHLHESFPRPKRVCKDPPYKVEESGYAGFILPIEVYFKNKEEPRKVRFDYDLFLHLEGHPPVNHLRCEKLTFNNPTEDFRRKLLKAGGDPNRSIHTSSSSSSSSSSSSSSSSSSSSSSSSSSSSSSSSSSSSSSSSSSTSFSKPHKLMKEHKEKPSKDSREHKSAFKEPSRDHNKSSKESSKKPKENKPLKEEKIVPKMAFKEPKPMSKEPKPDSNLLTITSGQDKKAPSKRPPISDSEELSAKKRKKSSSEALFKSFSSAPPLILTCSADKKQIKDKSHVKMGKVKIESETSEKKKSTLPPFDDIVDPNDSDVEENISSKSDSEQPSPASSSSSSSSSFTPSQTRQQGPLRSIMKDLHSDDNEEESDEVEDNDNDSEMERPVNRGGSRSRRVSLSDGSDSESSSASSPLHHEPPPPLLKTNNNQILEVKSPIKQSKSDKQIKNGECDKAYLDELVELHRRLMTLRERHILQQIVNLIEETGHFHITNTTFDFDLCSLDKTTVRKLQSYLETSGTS
rRNA inh HTS OD600 = second read-out of rRNA inh HTS, no call of its own (marks repeat the call); OD600 change, %; measured here: OD600 growth;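 optical density of the mix in the first replicate; 0 = DMSO median and -100 = no signal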
rRNA inh HTS RFP = recorded beside rRNA inh HTS, whose call it bears; RFP signal change, %; measured here: RFP humanized mutant strains;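 first replicate; 0 = DMSO median and -100 = no signal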
An asterisk follows results filed as active; i = inactive; ? = inconclusive; . = no result given; & = joins results of further samples.

SMILES	FGF22 binding	E coli growth	rRNA inh HTS	rRNA inh HTS OD600	rRNA inh HTS RFP	ALR H2O2 inh	HNF4A DNA FP	Vif TR-FRET	MLL AF4-AF9 inh
COC(=O)C1C(O)C(C)C(O)C(C)/C=C\C=C(/C)C(=O)Nc2c(C)c(OC(C)=O)c3c(c2O)C(=O)C(C)=C2OCOC(=C23)/C(C)=C/C(C)(O)C(O)C(C)C1O (stereo unspecified)	i	.	-17*	12*	6.3*	-32	-2.5	0%	3.9
CC(=NCc1ccc2c(c1)OCO2)c1c(O)n(-c2ccc(C)cc2)c(=O)[nH]c1=O	i	0.68	19	15	2.0	3	-0.7	0%	-2.0
CCOc1cc2c(cc1OCC)-n1cccc1C(c1ccccc1F)NC2 (stereo unspecified)	i	0.63	-9	-29	-0.7	-30	1.2	-7%	?
CCCCC(=O)N/N=C/c1c(O)n(CC)c(=S)n(CC)c1=O	i	0.67	.	.	.	0	30	.	2.3
C[N+](C)(C)CC(=O)Nc1ccc(Cl)cc1C(=O)c1ccccc1	i	0.67	19	16	6.9	-14	3.0	7%	-0.6
CN(C)CCCNCC(=O)Nc1ccc(Cl)cc1C(=O)c1ccccc1	i	.	1	-1	-2.1	7	1.2	4%	10
CC(=O)Nc1cc(C(=O)N2CCC3(CC2)OCCO3)ccc1Sc1ccc(C)cc1	.	0.74	.	.	.	-4	0.8	-1%	.
CC(Cc1ccccc1Sc1ccccc1)N(C)C (stereo unspecified)	i	0.58	-2	-10	-8.6	-12	-0.2	0%	6.8
CC(C)(CN)CC(=O)O	i	.	9	8	-6.1	-1	-0.6	.	5.2
COc1cccc2c1O[C@H]1C(=O)CC[C@H]3CN(C)CCC231 (stereo partly specified)	i	.	0	-7	-1.4	-8	1.7	.	2.1
Cc1ccc2c(c1)C(c1ccccc1)=NCC(=O)N2	i	0.71	-2	-7	-3.2	.	-2.9	4%	-12
Cc1cccc(CN2CCN(Cc3ccc(Cl)cc3)CC2)c1	.	0.68	.	.	.	-5	0.6	-5%	.
O=C(NCCN1CCC2(CC1)C(=O)NCN2c1ccccc1)c1ccc(F)cc1F	i	.	12	15	5.8	.	.	.	-4.2
COC(=O)C1=C(c2ccc(OC(F)(F)F)cc2)C[C@@H]2CC[C@H]1N2C(=O)NCc1cc(C)oc1C(F)(F)F	i	.	5	1	-6.1	-1	5.6	.	1.2
CCC(=NCCCN1CCOCC1)c1c(O)n(Cc2ccccc2)c(=O)[nH]c1=O	.	0.71	.	.	.	-13	-3.4	28%	.
CCOc1ccccc1-n1c(O)c(C=Nc2c(C)n(C)n(-c3ccccc3)c2=O)c(=O)[nH]c1=O	.	0.65	.	.	.	17	-1.7	-9%&-2%	.
COC(=O)C1=C(c2ccc(F)cc2F)C[C@@H]2CC[C@H]1N2C(=O)NC1CC1	.	0.73	.	.	.	-1	-1.1	.	.
CN(c1ccc(O)cc1)c1ccc([N+](=O)[O-])c2nonc12	i	.	-62	-79	-17	.	11	-8%	27*
O=C(NC(=O)N1CCC2(CC1)OCCO2)c1ccc(Cl)cc1	i	0.69	8	-1	1.7	.	-1.0	-4%	1.2
COC(=O)C1=C(c2ccc(S(C)(=O)=O)cc2)C[C@@H]2CC[C@H]1N2C(=O)NCc1ccco1	i	.	1	-3	3.5	4	-1.2	.	2.8
O=P(N1CCCCC1)(N1CCCCC1)C(Cl)(Cl)Cl	.	0.69	.	.	.	-1	2.3	6%	.
CCC(=NCc1ccco1)c1c(O)n(C)c(=O)n(C)c1=O	i	0.66	1	4	2.3	2	-4.6	2%	.
COc1ccc(-n2nc(C(=O)NCC(=O)N3CCC4(CC3)OCCO4)c3ccccc3c2=O)cc1	i	0.7	-9	-15	-1.2	3	-1.7	.	-11
COc1ccc(C#Cc2ccc([C@@H]3[C@@H](CO)N4CCCCN(C(=O)Cc5cccnc5)C[C@@H]34)cc2)cc1	i	.	-55	-74	-7.5	.	.	.	-4.6
Clc1ccc(CNC2CN3CCC2CC3)cc1 (stereo unspecified)	.	0.68	.	.	.	1	-3.1	2%	.
COCCNC(=S)N1Cc2ccccc2-n2nncc2C1	i	.	4	7	-1.6	.	-3.2	3%	-2.5
O=c1[nH]c(O)c(C=NC2CCN(Cc3ccccc3)CC2)c(=O)[nH]1	.	0.7	.	.	.	-5	-2.1	.	.
CC(=O)OC1CCC2(C)C(=CC(=O)C3C2CCC2(C)C(OC(C)=O)CCC32)C1 (stereo unspecified)	i	.	.	.	.	.	0.8	-5%	-2.6
COc1ccc(OC(=O)N(C)C[C@H]2OCc3cnnn3CCCC(=O)N([C@H](C)CO)C[C@H]2C)cc1	i	.	14&1	6&8	3.4&-1.6	.	0.0	.	-1.5&2.1
O=C(NCCN1CCCCC1)c1ccc(Cl)nc1Cl	i	0.68	12	14	-1.4	-2	0.7	-5%	3.7
N#CCCn1cc(C(=O)NCc2ccccc2)c(-c2ccc3c(c2)OCCO3)n1	i	0.67	2	1	-1.6	.	-1.5	-3%	-4.7
CCCS(=O)(=O)N1CCC(C(=O)N2CCC3(CC2)OCCO3)CC1	.	0.74	.	.	.	-3	-0.4	20%	.
Cc1oc(-c2ccccc2Cl)nc1CN1C(=O)CN=C(c2ccccc2)c2ccccc21	i	0.78	-20	-35	-2.5	3	0.1	.	6.9
O=C(NCc1ccccc1)c1cccn(Cc2ccccc2)c1=O	i	0.66	-9	-12	-1.0	-6	2.6	-3%	-1.2
CCCCCCCCCCCCn1ccc(=N)cc1	i	0.07*	-52	-80	-14	-9	6.9	6%	4.1
COCc1c(CN)cnc(C)c1N	.	0.66	.	.	.	5	-5.2	5%	.
CC1(C)CC(=O)C2=C(C1)NC(=O)C21C(C(=O)OC(C)(C)C)=C(N)Oc2ccc(Br)cc21 (stereo unspecified)	.	0.69	5	6	-0.8	-9	-3.5	-3%	.
COc1ccccc1N1CCN(Cc2ccc(Br)s2)CC1	.	0.67	.	.	.	18	0.9	1%	.
O=[N+]([O-])c1c2ccccc2cc2ccccc12	.	0.68	.	.	.	-1	-1.3	.	.
O=[N+]([O-])c1ccc(N2CC2)c([N+](=O)[O-])c1	i	0.67	-16*	7.4*	-7.3*	.	4.4	-6%	-0.3
CN(C)CCN=Cc1c(O)n(Cc2ccc3c(c2)OCO3)c(=S)[nH]c1=O	i	0.7	0	-2	13	.	1.0	6%	1.7
CC(C)c1oc(=O)cc2c1[C@@H](O)[C@H]1OC(=O)[C@@]3(C)CC[C@@H](O)[C@@]2(C)C13 (stereo partly specified)	i	.	13	17	3.0	9	3.2	.	0.9
CCCCn1c(=O)c(C(=O)Nc2ccccc2C)c(O)c2ccccc21	.	0.68	.	.	.	-12	39*	-1%	.
CC(=O)OC1(c2ccccc2)CCN(C)C(C)C1C (stereo unspecified)	.	0.72	.	.	.	-3	4.7	-5%	.
C[C@]12CC[C@@H](O)C[C@@H]1CC[C@@H]1[C@@H]2CC[C@]2(C)[C@@H](O)CC[C@@H]12	i	.	.	.	.	-12	-2.5	0%	-0.1
CCOC(=O)[C@]12Cc3cc(OC)ccc3[C@H]1N(C)C(=O)c1cc(OC)ccc12	i	.	-16	-36	-7.4	.	-3.6	.	-2.3
CN(C)c1ccc(CCN2CCOCC2)cc1	i	0.76	6	13	11	-1	0.8	.	-8.2
COC(=O)C1=C(c2cccc(C#N)c2)C[C@@H]2CC[C@H]1N2C(=O)N1CCc2cc(OC)c(OC)cc2C1	i	.	-2	11	-0.9	-1	0.0	.	2.2
COCC(=O)N1[C@@H]2Cn3c(ccc(C4=CCCC4)c3=O)[C@H]1[C@@H](C(=O)OC)[C@@H]2CO	i	.	3	4	0.0	.	.	.	-0.5
Cc1noc(C)c1CSCC(=O)Nc1ccc(C#N)c(Cl)c1	i	0.64	-5	-22	6.9	-2	-0.7	.	-1.5

(next part)
SMILES	FGF22 binding	E coli growth	rRNA inh HTS	rRNA inh HTS OD600	rRNA inh HTS RFP	ALR H2O2 inh	HNF4A DNA FP	Vif TR-FRET	MLL AF4-AF9 inh
C=CCN1C(=O)NC(=O)/C(=C/C=C/c2ccccc2)C1=O	i	0.7	.	.	.	.	20	?	-3.5
N#CC[N+]1(CCCNP2(=O)C=C(c3ccccc3)OC(c3ccccc3)=C2)CCOCC1	i	0.64	14	9	8.2	-13	1.0	-6%	3.6
COc1cccc(CN2CCN(C(=O)COc3ccc4ccccc4c3)CC2)c1	.	0.79	.	.	.	-35	-3.1	-8%	.
Cc1cccc(-n2c(O)c(/C=C3/C(c4ccccc4)=Nc4ccccc43)c(=O)[nH]c2=O)c1	i	0.64	1	-5	1.8	18	6.3	7%	1.7
O=[N+]([O-])c1cc(F)c(N2CCCC2)cc1Br	i	0.62	1	1	1.6	-5	2.6	-11%	3.1
CC1CC2(C)C(CCC3C2CCC2(C)C(OP(=O)(N4CC4)N4CC4)CCC32)CC1=O (stereo unspecified)	i	.	.	.	.	.	-0.6	-3%	0.5
CC(C)OP(=O)(OC(C)C)C(O)c1cccnc1 (stereo unspecified)	.	0.68	.	.	.	-1	3.5	-8%	.
CCOC(=O)C(O)(c1ccc(NC(=O)NC2CCCCC2)cc1)C(F)(F)F (stereo unspecified)	.	0.66	.	.	.	-8	3.1	-8%	.
COC(=O)C1=C(c2cccc3c2S(=O)(=O)c2ccccc2-3)C[C@@H]2CC[C@H]1N2C(=O)N1CCc2cc(OC)c(OC)cc2C1	i	.	-6	-8	-5.4	1	0.4	.	10
Cc1nc2cc(-c3ccccc3)nn2c(C)c1CCC(=O)N1CCC2(CC1)OCCO2	.	0.69	.	.	.	.	5.1	2%	.
C[C@]12CC[C@H]3[C@@H](CC[C@]4(O)C[C@@H](O)CC[C@]34C=O)[C@@]1(O)CC[C@@H]2C1=CC(=O)OC1	i	.	.	.	.	-7	-3.8	.	-2.9
COC(=O)[C@@H]1[C@@H](CO)[C@@H]2Cn3c(ccc(-c4ccccc4F)c3=O)[C@H]1N2Cc1cccnc1	i	.	0	3	-2.1	.	.	.	3.0
O=c1[nH]c(=O)n(-c2ccc(Br)cc2)c(O)c1C=NCCN1CCCCC1	i	0.68	17	10	-2.0	.	14	-7%	-9.6
NC(=O)OCCCc1ccccc1	i	0.69	-2	2	5.3	21	0.2	.	-24
COc1cccc(C2(O)CCSCC2CN(C)C)c1 (stereo unspecified)	i	0.67	3	10	-3.2	-104	-0.9	7%	-2.7
CN(Cc1ccccc1)C1CCCN(C(=O)COc2ccccc2Cl)C1 (stereo unspecified)	i	0.73	-7	-6	-0.8	3	-3.1	.	2.2
CC[N+](CC)(CC#CCO)CC#Cc1ccccc1	i	0.67	14	22	-6.4	-6	1.4	27%	0.8
N#Cc1c(/N=C/c2ccc(O)cc2O)sc2c1C1CCN2CC1	.	.	.	.	.	4	40*	-2%	.
Cc1cccc(NC(=O)N2CCCC2)c1	i	0.65	12	8	1.7	-4	0.3	-5%	-10
Cc1nc2ccc(Cl)cn2c1P(=S)(N1CCOCC1)N1CCOCC1	.	0.69	.	.	.	-1	-0.3	-4%	.
CC1COC2N=C(N[N+](=O)[O-])NC2O1 (stereo unspecified)	.	0.66	19	11	-1.4	11	-1.9	?	-1.8

An excerpt; count on the stated rates, not on these rows.
